Autofluor counter = compound fluorescence in toxin protease inhibitor counterscreen; compound autofluorescence counterscreen, microsphere flow cytometry; active compounds read high; fluorescence intensity (concentration not given with the values); 360,000 tested, 3.1% active;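 active = at least 3 SD above the mean of all compounds, about 16000 in these data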;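 note: 100 nL of 1 mM stock went into each well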
BJeLR viability = MLPCN primary cell-based screen for lethality selective to Ras in HRASV12 cells; BJeLR (HRASV12) viability, CellTiter-Glo ATP luminescence, 48 h; reference of the scale not given here; inhibition, % (concentration not given with the values); 300,000 tested, 0.17% active;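 active = replicate mean above 50%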;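 note: 50 nL library stock added to about 25 µL; numbers are from one replicate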
RN4220 kill = growth inhibition of S. aureus RN4220, primary screen, OD600. 16 h. inhibition, % (concentration not given with the values). 330,000 tested, 0.33% active. AID 1259311, 2017;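 active = z-score of -3 or lower and OD600 up to 0.18 on both plates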;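 note: plate controls were untreated cells for no effect and reference antibiotic for full effect; stock transfer was 100 nL into about 80 µL; one replicate is shown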
Sa ugtP lethal = growth inhibition of ugtP-null S. aureus, primary screen, RN4220 ugtP deletion, OD600; 16 h; some inactives read as strong as hits; growth inhibition, % (test concentration not listed); 330,000 tested, 0.54% active; AID 1259309, 2017;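 active = z-score under -3 and OD600 up to 0.15 on both plates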;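 note: plate controls were untreated wells for no effect and antibiotic for full effect; wells of about 80 µL received 100 nL stock; the first replicate is given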
PrP 5UTR inh = inhibition of PrP 5' UTR reporter expression | cell-based PrP 5' UTR mRNA reporter, plate reader | inhibition, % (no concentration beside the values) | 340,000 tested, 0.35% active | AID 488862, 2010;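 active = every replicate at 50% or more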;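 note: 0 = median of the neutral control wells; tested in H4 reporter cells; numbers are from one replicate; inactives centre near -14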
Mtb hypoxia inh = PubChem AID 1159583. M. tuberculosis hypoxia-regulated fluorescent reporter, fluorescence. fluorescence inhibition, % (no concentration beside the values). 300,000 tested, 0.1% active;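 active = 35 to 45% if threefold the growth effect, above 45% if 1.5-fold the growth effect; inactive = the rest, general growth blockers included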;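 note: wells of about 50 µL received 100 nL stock; 0% = vehicle wells and 100% = reference inhibitor wells; whole bacteria with a GFP reporter of the hypoxia response; strong numbers were not always called active; many hits fall short of the cut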
Mtb hypoxia inh growth = recorded beside Mtb hypoxia inh, whose call it bears; growth inhibition, %; measured here: M. tuberculosis growth (absorbance);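 0% = vehicle and 100% = reference antibiotic; read after six days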
The depositor's hits bear a star; nt = no result given.

SMILES | Autofluor counter | BJeLR viability | RN4220 kill | Sa ugtP lethal | PrP 5UTR inh | Mtb hypoxia inh | Mtb hypoxia inh growth
Cc1nc(CC(=O)c2c(C)cc(O)cc2O)cs1 | 12406 | 7 | 5.4 | 0 | -24 | 1 | 1
CN(Cc1c(F)cccc1Cl)C(=O)CCc1c[nH]c2ccccc12 | 3910 | 1 | 0.6 | 0 | -10 | -7 | 14
Cc1ccc(S(=O)(=O)N2CCN(C(=O)c3ccc4ccccc4n3)CC2)c(C)c1 | 3874 | nt | -1.9 | -4 | -67 | -5 | -9
CCOC(=O)C1C2COc3ccc(Cl)cc3C2N2C(=O)CN(Cc3ccc(OC)cc3)C(=O)[C@@]12C (some centres undefined) | nt | nt | 1.2 | 4 | nt | 6 | 8
CCn1c(SCC(=O)Nc2oc(-c3ccccc3)c(-c3ccccc3)c2C#N)nnc1-c1ccncc1 | 3571 | -5 | 6.5 | 7 | -13 | nt | nt
CC(C)(CC(=O)O)CC(=O)Nc1ccc2c(c1)ncn2CCc1ccccc1 | 4167 | 3 | 0.3 | 17 | -7 | -1 | 7
Cc1cc(NCCCCO)n2c(nc3ccccc32)c1C#N | 6880 | 0 | 0.4 | 2 | 12 | -7 | 7
CN(C(=O)C1CCC1C(=O)O)c1nc(-c2ccc(Cl)s2)cs1 (centres undefined) | 4137 | -3 | 8.2 | -5 | -10 | -4 | 7
CC12CN3CC(C)(CN(C1)C3c1cccs1)C2=O (centres undefined) | 3875 | 7 | 6.5 | 3 | -16 | 13 | 9
CCN(Cc1ccccc1)C(c1ccc(C)cc1)c1nnnn1C(C)(C)C (centres undefined) | 3716 | 4 | 8.0 | -5 | -10 | 14 | 6
COc1cc(/C=N/NC(=O)c2ccc(N3CCCC3=O)cc2)ccc1O | 5092 | 2 | nt | nt | -13 | nt | nt
CNC(=O)N(O)C1N(N=Cc2c(F)cccc2Cl)C(=S)SC1(C)C (centres undefined) | nt | nt | 6.5 | 12 | nt | -2 | 8
S=C1NCN(Cc2ccco2)CN1c1cccc2ccccc12 | 4008 | -4 | 2.3 | 11 | 1 | 5 | 0
O=C(C1CCCO1)N1CCN(C(=S)Nc2ccc(Br)cc2)CC1 (centres undefined) | 5868 | 6 | -3.7 | -6 | -20 | -2 | -2
CC(=O)NC(Cc1ccc(F)cc1)C(=O)NC1CCN(C(=O)Nc2ccccc2C)CC1 (centres undefined) | 5442 | -4 | -0.1 | 1 | 6 | -9 | 4
Cc1ccc(N(CC(=O)NCCSc2ccccn2)S(=O)(=O)c2ccc(F)cc2)cc1 | 5939 | 12 | 5.5 | 6 | -39 | 0 | 4
COCCNC(=O)C1CC2Cn3c(nc4cc(C)c(C)cc43)C2N1C (centres undefined) | 3129 | 9 | 4.6 | 1 | 4 | 17 | 17
Cn1c(=O)cc(SCC(=O)N2CCCC2)c2ccccc21 | 3631 | 7 | 4.0 | 1 | -16 | 0 | 3
O=C(O)c1ccccc1NS(=O)(=O)c1cccc2nsnc12 | 4318 | -3 | 0.8 | 8 | -22 | 4 | -5
Cc1ccc(S(=O)(=O)N(C(=O)c2ccncc2)c2ccc(OC(=O)c3ccncc3)c3ccccc23)c(C)c1 | 4506 | -9 | 14 | -5 | -16 | nt | nt
CCCc1cc(=O)[nH]c(SCc2cccnc2)n1 | 2397 | 5 | 3.2 | -1 | -10 | nt | nt
COc1cccc(CN2C(=O)N(C(C)C)C(N(O)C(=O)NC(C)C)C2(C)C)c1OC (centres undefined) | 4361 | -5 | 0.2 | -10 | 5 | nt | nt
Cn1c(Cn2nnc3ccccc32)nnc1SCC(=O)Nc1ccc2c(c1)OCO2 | 9759 | -1 | 4.1 | 4 | -20 | 9 | 9
CC(=O)Nc1ccc(NC(=O)C(C)OC(=O)c2cccs2)cc1 (centres undefined) | 3817 | nt | 3.5 | 2 | 9 | 15 | 3
N#C/C(=C(/O)CCl)c1nc2c(s1)CCc1ccccc1-2 | 4211 | -4 | 65 | 38 | 1 | 5 | 6
Cc1noc(C)c1CSCC(=O)Nc1cc(C(F)(F)F)ccc1N1CCCCC1 | 6976 | -7 | -0.7 | -19 | 8 | 0 | 7
O=C(CSc1nc2ccccc2n1Cc1ccc(Cl)cc1)N/N=C/c1ccc(C(=O)O)cc1 | 4687 | -4 | nt | nt | -7 | nt | nt
O=C(O)CCS(=O)(=O)Cc1cccc(Cl)c1 | 23460* | 3 | 2.7 | 1 | 10 | 1 | -2
CCOCCCNCc1cccc(OCc2ccc(F)cc2)c1 | 2554 | 2 | 1.4 | -1 | -19 | 11 | 7
O=c1c2ccccc2n2c(=S)[nH]nc2n1-c1ccccc1 | 2993 | 1 | 4.2 | -4 | -21 | -9 | -2
O=C(Nc1nccs1)c1sc2ccccc2c1Cl | 2406 | -3 | 0.1 | -18 | -49 | 10 | 7
Cc1nnc(SCC(=O)N(C)c2ccccc2)n1Cc1ccccc1 | 3656 | 1 | 3.0 | -3 | -9 | -1 | -2
CC(C)CCNC(=O)C(=O)NC1CCCC1 | 2228 | 6 | 2.2 | 2 | -26 | 2 | 2
CCCC(=O)c1c(NCCO)cc(C)oc1=O | 2079 | -2 | 0.0 | 14 | -3 | 7 | 9
COC(=O)[C@]1(CC(C)C)NC(c2ccc(-c3ccc(OC)cc3)cc2)C2C(=O)N(C)C(=O)C21 (some centres undefined) | nt | nt | -3.2 | 21 | nt | 5 | 7
CCCN(c1ccc(OCC)cc1)S(=O)(=O)c1ccc2c(c1)NC(=O)CO2 | 5749 | 0 | 3.1 | -6 | 10 | -11 | 6
Cc1ncc([N+](=O)[O-])n1CC(=O)NC1CCCC1 | 5837 | -4 | 3.4 | 2 | -34 | 9 | 12
C[C@]12CCC3c4ccc(OC(=O)c5ccccc5)cc4CCC3C1CCC2O (some centres undefined) | nt | nt | 1.6 | 19 | nt | -3 | 0
Cc1occc1C(=O)NCCCCNC(=O)c1ccoc1C | 4006 | 2 | 1.3 | 4 | -7 | 3 | 8
CCOc1ccccc1NC(=O)C(=O)C=C(O)c1cc(OC)ccc1OC | nt | nt | 12 | -2 | nt | 4 | -4

13 entries from above in a different format:
Compound	Autofluor counter	BJeLR viability	RN4220 kill	Sa ugtP lethal	PrP 5UTR inh	Mtb hypoxia inh	Mtb hypoxia inh growth
Cc1noc(C)c1CSCC(=O)Nc1cc(C(F)(F)F)ccc1N1CCCCC1	6976	-7	-0.7	-19	8	0	7
O=C(CSc1nc2ccccc2n1Cc1ccc(Cl)cc1)N/N=C/c1ccc(C(=O)O)cc1	4687	-4	nt	nt	-7	nt	nt
O=C(O)CCS(=O)(=O)Cc1cccc(Cl)c1	23460*	3	2.7	1	10	1	-2
CCOCCCNCc1cccc(OCc2ccc(F)cc2)c1	2554	2	1.4	-1	-19	11	7
O=c1c2ccccc2n2c(=S)[nH]nc2n1-c1ccccc1	2993	1	4.2	-4	-21	-9	-2
O=C(Nc1nccs1)c1sc2ccccc2c1Cl	2406	-3	0.1	-18	-49	10	7
Cc1nnc(SCC(=O)N(C)c2ccccc2)n1Cc1ccccc1	3656	1	3.0	-3	-9	-1	-2
CC(C)CCNC(=O)C(=O)NC1CCCC1	2228	6	2.2	2	-26	2	2
CCCC(=O)c1c(NCCO)cc(C)oc1=O	2079	-2	0.0	14	-3	7	9
COC(=O)[C@]1(CC(C)C)NC(c2ccc(-c3ccc(OC)cc3)cc2)C2C(=O)N(C)C(=O)C21 (some centres undefined)	nt	nt	-3.2	21	nt	5	7
CCCN(c1ccc(OCC)cc1)S(=O)(=O)c1ccc2c(c1)NC(=O)CO2	5749	0	3.1	-6	10	-11	6
Cc1ncc([N+](=O)[O-])n1CC(=O)NC1CCCC1	5837	-4	3.4	2	-34	9	12
C[C@]12CCC3c4ccc(OC(=O)c5ccccc5)cc4CCC3C1CCC2O (some centres undefined)	nt	nt	1.6	19	nt	-3	0

Remaining list, next part.
SMILES | Autofluor counter | BJeLR viability | RN4220 kill | Sa ugtP lethal | PrP 5UTR inh | Mtb hypoxia inh | Mtb hypoxia inh growth
Cc1c(NC(=O)c2cccs2)c(=O)n(-c2ccccc2)n1C | 3940 | 13 | 6.5 | 0 | -19 | -3 | 12
COc1ccc(C2/C=C\CC(OCc3ccccc3)CC(=O)N2Cc2cccc(F)c2)cc1 (centres undefined) | 3863 | nt | -0.2 | 12 | -10 | 1 | -10
Cc1ccc(C)c(NC2CCCCC2NS(=O)(=O)c2ccccc2)c1 (centres undefined) | 4030 | -1 | 8.8 | -13 | -11 | 4 | 0
CCO[C@@H]1OC(C(=O)NC2CC2)=C[C@H](c2coc3ccccc3c2=O)[C@H]1CCCO | 3649 | -1 | nt | nt | -14 | nt | nt
CCC(=O)Nc1cccc(C2=NOC3(C2)CC(C(N)=O)N(C(=O)CC(c2ccccc2)c2ccccc2)C3)c1 (centres undefined) | nt | nt | 2.2 | -2 | nt | -3 | 4
Cc1ccc(OCCCC(=O)Nc2ccc(N3CCOCC3)cc2)cc1 | 2551 | 7 | 4.1 | 4 | -6 | 8 | 8
CCN(CC)S(=O)(=O)c1ccc(Cl)c(NC(=O)COc2ccc(OC)cc2)c1 | 4675 | 0 | 5.6 | -3 | -20 | 9 | 5
COCCn1c(SCC(=O)NCC2CCCO2)nc2c(c1=O)SC(C)C2 (centres undefined) | 5497 | -3 | -8.2 | -6 | -10 | 7 | 8
O=[N+]([O-])c1ccc(/C=N/NC(=S)Nc2ccc(Cl)cc2Cl)s1 | 5303 | 4 | nt | nt | -24 | nt | nt
COc1ccc(S(=O)(=O)N2CCCC(C(=O)Nc3cccc(C(C)=O)c3)C2)cc1 (centres undefined) | 4359 | -3 | 0.5 | -3 | -6 | nt | nt
CC1CCN(C(=O)COC(=O)c2cccc(NS(=O)(=O)c3ccccc3)c2)CC1 | 5934 | 1 | 0.9 | 12 | -4 | 4 | 12
O=C(N/N=C/c1ccccc1)c1ccc(-c2ccccc2)cc1 | 4062 | 2 | nt | nt | -24 | nt | nt
Cc1nn(Cc2noc(C(=O)NCCc3ccccn3)n2)c(C)c1Br | 3619 | 0 | 2.4 | 3 | -3 | -16 | -8
NC(=O)C1CCN(C(=O)c2cnn(-c3ccccc3)c2NC(=O)c2ccco2)CC1 | 5635 | -9 | -0.8 | 8 | -5 | nt | nt
C(=NNCc1ccccc1)c1ccc2nccnc2c1 | nt | nt | 0.4 | 9 | nt | 6 | 0
COC(=O)c1cn(Cc2ccccc2C)nn1 | 2384 | -14 | 3.6 | 3 | -13 | -3 | -5
COc1ccccc1N(CC(=O)N1CCN(c2ccccc2)CC1)S(=O)(=O)c1ccc(C)cc1 | 4967 | -1 | 3.5 | 10 | -10 | 9 | 9
CC(=O)N(C)c1ccc(NC(=O)C(Sc2ccccc2)c2ccccc2)cc1 (centres undefined) | 4545 | 5 | 1.6 | -1 | -11 | -8 | 5
Nc1ccc(C(=O)NN=Cc2cn(Cc3cccc(F)c3)c3ccccc23)cc1 | nt | nt | -0.4 | -9 | nt | -10 | 0
Cc1ccc(-n2cc(C(=O)c3ccccc3O)cn2)cc1 | 3327 | 9 | 5.9 | -11 | -1 | 4 | 11
CC(=O)c1c(O)cc(C)n(Nc2nc(C)cc(C)n2)c1=O | 21656* | 6 | -1.5 | -11 | 8 | 0 | 13
Cn1cccc1C=NNC(=O)c1ccccn1 | nt | nt | 1.8 | 8 | nt | 10 | 11
CS(=O)(=O)c1ccc(-c2sc3cc4c(cc3c2C(=O)NN2CCOCC2)OCO4)cc1 | 4086 | nt | 0.2 | -4 | -4 | 0 | 9
Cc1cc(C)c(N=Cc2c(O)n(-c3nccs3)c(=O)c3ccccc23)c(C)c1 | 1945 | -4 | 1.1 | -37 | -7 | -2 | 19
Cc1ccc(S(=O)(=O)NCc2ccco2)c(C)c1C | 2400 | 12 | 5.8 | -6 | -31 | 9 | -2
Cc1cc(C(=O)Nc2ccccc2C(=O)O)c(C)o1 | 4005 | -2 | 7.2 | -4 | -38 | 5 | -3
O=C(C1CCCCC1)N1CCCC(c2nc(-c3ccc(F)cc3)no2)C1 (centres undefined) | 7904 | -1 | -3.8 | -2 | -6 | 4 | 5

High-throughput results (PubChem)
